Bioassay records from PubChem BioAssay.
NOMO-1 viab: STK33 inhibitor candidate reducing NOMO-1 cell viability; inhibition, % (test concentration not listed); AID 2330; hit rate 7.5% among 37,000; NOMO-1 AML viability, CellTiter-Glo luminescence, 72 h;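 active = most replicates above 80%; inconclusive = exactly half above 80%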;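 note: wells of about 30 µL received 25 nL stock; 0% = median of vehicle wells and 100% = reference inhibitor level; the first replicate is given; inactives centre near 10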
The depositor's hits bear a star; ? = inconclusive. An excerpt; rates above refer to the full screens.

SMILES	NOMO-1 viab
CC(C(=O)Nc1ccccc1Br)N(c1ccc(Cl)cc1)S(C)(=O)=O (stereo unspecified)	-2
CC(C)NC(=O)Nc1ccc2c(c1)C(=O)N([C@H](C)CO)C[C@H](C)[C@H](CN(C)S(=O)(=O)c1ccc(F)cc1)O2	-5
N#Cc1c(-c2ccccc2)nc(SCCN2C(=O)c3ccccc3C2=O)[nH]c1=O	6
Cc1ccc(S(=O)(=O)Nc2ccc3c(c2)C(=O)N([C@H](C)CO)C[C@H](C)[C@@H](CN(C)Cc2ccncc2)O3)cc1	3
COc1ccc(-c2noc(CN(C)S(=O)(=O)c3ccccc3)n2)cc1OC	20
Cc1sc(NC(=O)COc2ccccc2)c(C(N)=O)c1-c1ccccc1	42
C=C1C(C2(C)C=CC(=O)C(C)(C)C2CC(=O)OC)CC[C@@]2(C)[C@H](c3ccoc3)OC(=O)C3OC132 (stereo partly specified)	110*
Cc1noc(C)c1NC(=O)Nc1cccc2c1O[C@@H](CN(C)Cc1ccccc1)[C@H](C)CN([C@@H](C)CO)C2=O	3
C[C@H](CO)N1C[C@H](C)[C@H](CN(C)Cc2ccccc2)Oc2ccc(NC(=O)C3CCCCC3)cc2CC1=O	-11
COc1ccccc1NC(=O)c1c(NC(=O)c2ccco2)sc(C)c1C	45
C[C@H]1CN([C@@H](C)CO)C(=O)Cc2cc(NC(=O)C3CCCCC3)ccc2O[C@@H]1CN(C)C(=O)Nc1ccc2c(c1)OCO2	-5
c1ccc(CC(Cc2nc3ccccc3[nH]2)c2nc3ccccc3[nH]2)cc1 (stereo unspecified)	28
C[C@H](CO)N1C[C@H](C)[C@H](CN(C)S(C)(=O)=O)Oc2c(NC(=O)C3CC3)cccc2C1=O	4
O=C(CSc1nnc(-c2ccccc2O)n1-c1ccccc1)Nc1cccc(C(=O)O)c1	-11
O=CNc1nonc1NC(=O)c1ccccc1Cl	23
COc1ccc(S(=O)(=O)Nc2ccc(Br)c3cccnc23)c([N+](=O)[O-])c1	128*
C[C@@H]1CN([C@H](C)CO)C(=O)Cc2cc(NS(=O)(=O)c3ccc(F)cc3)ccc2O[C@H]1CN(C)C	7
Nc1nnc(SC2c3cccc4cccc(c34)C2NS(=O)(=O)c2ccc(Cl)cc2)s1 (stereo unspecified)	24
O=C(NCCCn1ccnc1)c1ccc(Cl)c(Cl)c1	12
CCOC(=O)c1c(/N=C/c2ccccc2O)sc(C)c1C	23
Cc1ccc(N)c(C(=O)CCCCC(=O)O)c1	-20
C[C@H]1CN([C@@H](C)CO)C(=O)Cc2cc(NC(=O)Cc3cn(C)c4ccccc34)ccc2O[C@H]1CN(C)C(=O)Nc1ccccc1	3
Cc1c(Br)c([N+](=O)[O-])nn1CC(=O)Nc1sc2c(c1C#N)CCC2	11
COc1ccc(NC(=O)N(C)C[C@H]2Oc3c(NC(=O)Nc4ccc(C(F)(F)F)cc4)cccc3C(=O)N([C@H](C)CO)C[C@@H]2C)cc1	103*
C[C@H](CO)N1C[C@H](C)[C@@H](CN(C)S(C)(=O)=O)Oc2ccc(NC(=O)CCC(F)(F)F)cc2C1=O	1
C[C@H]1CN([C@@H](C)CO)C(=O)Cc2cc(NS(=O)(=O)c3ccccc3)ccc2O[C@H]1CN(C)Cc1ccc(C(F)(F)F)cc1	52
CCn1c(CSc2nc3ccccc3[nH]2)n[nH]c1=S	15
C[C@@H]1CN([C@H](C)CO)C(=O)c2cccc(NS(C)(=O)=O)c2O[C@@H]1CN(C)CC1CC1	-5
Cc1ccc(N(CC(N)=O)S(=O)(=O)c2ccc(F)cc2)cc1	-26
Cc1ccc(S(=O)(=O)N(C)C[C@H]2Oc3ccc(NC(=O)CCCCCC(=O)Nc4ccccc4N)cc3C(=O)N([C@H](C)CO)C[C@H]2C)cc1	20
C[C@H](CO)N1C[C@H](C)[C@@H](CN(C)C(=O)NC2CCCCC2)Oc2c(NC(=O)Nc3ccc(F)cc3)cccc2C1=O	23
CNC[C@@H]1Oc2ccc(NS(=O)(=O)c3ccc(F)cc3)cc2C(=O)N([C@H](C)CO)C[C@@H]1C	-10
C[C@H](CO)N1C[C@H](C)[C@@H](CN(C)C(=O)Nc2ccc(F)cc2)Oc2c(NS(=O)(=O)c3ccc(Cl)cc3)cccc2C1=O	37
Cc1ccc(NC(=O)CSc2ncnc3sc4c(c23)CCC4)cc1	17
Cc1noc(C)c1S(=O)(=O)Nc1ccc2c(c1)C(=O)N([C@H](C)CO)C[C@H](C)[C@H](CN(C)CC1CC1)O2	17
COc1cccc(-c2csc3nc[nH]c(=O)c23)c1	6
COc1ccc(NC(=O)N(C)C[C@H]2Oc3c(NS(=O)(=O)c4ccccc4)cccc3C(=O)N([C@H](C)CO)C[C@@H]2C)cc1	29
Cc1ccc(S(=O)(=O)Nc2cccc3c2O[C@@H](CN(C)C(=O)Nc2cccc4ccccc24)[C@H](C)CN([C@@H](C)CO)C3=O)cc1	-5
CC1(C)C[C@H](O)C[C@@]2(C)[C@H]1[C@H](O)C=C1COC(=O)[C@@]12O	-27
COc1ccc(NC(=O)Nc2ccc3c(c2)C(=O)N([C@H](C)CO)C[C@H](C)[C@@H](CN(C)C(=O)CCCN(C)C)OCCCC[C@@H](C)O3)cc1	-10
COc1ccc(NC(=O)Nc2cccc3c2O[C@@H](CN(C)C(=O)Nc2ccc(F)cc2)[C@@H](C)CN([C@H](C)CO)C3=O)cc1	14
C[C@H]1CN([C@@H](C)CO)C(=O)c2cccc(NS(=O)(=O)c3ccc(F)cc3)c2O[C@@H]1CN(C)Cc1ccc(-c2ccccc2)cc1	20
C=CC(C)(O)CC(/C=C(\C)CC(/C=C(\C)CCC=C(C)C)OC(C)=O)OC(C)=O (stereo unspecified)	98*
N#Cc1c(C(F)(F)F)cc(-c2cccs2)nc1SCC(O)CN1CCSCC1 (stereo unspecified)	35
COc1ccc(S(=O)(=O)Nc2cccc3c2O[C@H](CN(C)S(=O)(=O)c2cccs2)[C@H](C)CN([C@@H](C)CO)C3=O)cc1	56
COc1ccc(S(=O)(=O)N(C)C[C@H]2Oc3ccc(NC(=O)CCCN(C)C)cc3C(=O)N([C@@H](C)CO)C[C@@H]2C)cc1	23
O=C1CC(c2ccccc2)Oc2ccccc21 (stereo unspecified)	-4
Cc1cc2ncc(-c3ccnc(SCCS(=O)(=O)c4ccccc4)n3)c(C)n2n1	29
C[C@H]1CN([C@@H](C)CO)C(=O)Cc2cc(NC(=O)Cc3cn(C)c4ccccc34)ccc2O[C@H]1CN(C)Cc1ccc(Oc2ccccc2)cc1	?
COc1ccccc1-c1nc(SCc2ccc(C(=O)O)cc2)n[nH]1	35
Following part:
SMILES	NOMO-1 viab
C[C@@H]1CN([C@@H](C)CO)C(=O)c2cccc(NS(=O)(=O)c3ccccc3)c2O[C@@H]1CN(C)Cc1ccc2c(c1)OCO2	8
C[C@H]1CN([C@@H](C)CO)C(=O)c2cc(N(C)C)ccc2O[C@@H]1CN(C)C(=O)Nc1ccccc1	10
C[C@@H]1CN([C@H](C)CO)C(=O)Cc2cc(NC(=O)Cn3cnnn3)ccc2O[C@H]1CN(C)C(=O)Nc1ccccc1	-7
COc1cc(OC)c2ccc(=O)oc2c1CC(O)C(C)(C)O (stereo unspecified)	32
C[C@H](CO)N1C[C@H](C)[C@@H](CN(C)C(=O)Nc2ccccc2)Oc2c(NC(=O)Nc3ccc(C(F)(F)F)cc3)cccc2C1=O	76
C[C@@H]1CN([C@H](C)CO)C(=O)Cc2cc(NC(=O)Nc3ccc(F)cc3)ccc2O[C@@H]1CN(C)Cc1ccc(Oc2ccccc2)cc1	114*
Cc1nc([N+](=O)[O-])c(NCCO)n1Cc1ccccc1	-20
O=c1cc(NCc2ccccc2)[nH]nc1-c1ccccc1	-10
C[C@H]1CN([C@@H](C)CO)C(=O)c2cccc(NS(=O)(=O)c3ccc(Cl)cc3)c2O[C@@H]1CN(C)Cc1ccncc1	10
COc1ccc(C(=O)Nc2ccccc2C(=O)OCc2cccc([N+](=O)[O-])c2)cc1	36

Part of the list above, set out differently:
SMILES | NOMO-1 viab
C[C@H](CO)N1C[C@H](C)[C@@H](CN(C)C(=O)Nc2ccccc2)Oc2c(NC(=O)Nc3ccc(C(F)(F)F)cc3)cccc2C1=O | 76
C[C@@H]1CN([C@H](C)CO)C(=O)Cc2cc(NC(=O)Cn3cnnn3)ccc2O[C@H]1CN(C)C(=O)Nc1ccccc1 | -7
O=c1cc(NCc2ccccc2)[nH]nc1-c1ccccc1 | -10
C[C@H]1CN([C@@H](C)CO)C(=O)c2cccc(NS(=O)(=O)c3ccc(Cl)cc3)c2O[C@@H]1CN(C)Cc1ccncc1 | 10

Further records
SMILES	NOMO-1 viab
O=C(CSc1nnc(-c2ccc(Cl)cc2)n1-c1ccccc1)Nc1cccc(Cl)c1Cl	11
N#Cc1c(N)nc2c(sc3nc4c(cc32)CCC4)c1-c1ccc(Br)cc1	29
Cc1ccc(N(C(C)C(=O)Nc2ccc(Br)c(C)c2)S(C)(=O)=O)cc1 (stereo unspecified)	-14
COc1ccc(S(=O)(=O)N(C)CC(=O)Nc2cccc(C(F)(F)F)c2)cc1Cl	-6
C[C@@H]1CN([C@H](C)CO)C(=O)Cc2cc(NC(=O)C3CC3)ccc2O[C@H]1CN(C)C(=O)Nc1ccc(F)cc1	-7
C[C@@H]1CN([C@@H](C)CO)C(=O)c2cc(NC(=O)NC3CCCCC3)ccc2O[C@@H]1CN(C)S(=O)(=O)c1cn(C)cn1	23
C[C@H]1CN([C@@H](C)CO)C(=O)c2cc(NC(=O)Nc3ccc(F)cc3)ccc2O[C@H]1CN(C)Cc1ccc(Oc2ccccc2)cc1	22
CCNc1nc(SC(C)C(=O)Nc2ccccc2)nc(N2CCOCC2)n1 (stereo unspecified)	-5
C[C@@H]1CN([C@H](C)CO)C(=O)c2cccc(NC(=O)c3ccncc3)c2O[C@H]1CN(C)S(C)(=O)=O	-22
CC(C)NC(=O)Nc1ccc2c(c1)CC(=O)N([C@H](C)CO)C[C@@H](C)[C@H](CN(C)S(=O)(=O)c1cn(C)cn1)O2	3
Cc1ccc(NC(=O)C23CC4CC(CC(C4)C2)C3)cc1	22
CC(=O)N[C@@H](CSC/C=C(\C)CC/C=C(\C)CCC=C(C)C)C(=O)O	-9
COc1ccc(S(=O)(=O)Nc2ccc3c(c2)CC(=O)N([C@H](C)CO)C[C@@H](C)[C@@H](CN(C)CC2CC2)O3)cc1	5
CC1(C)CC(=O)c2c(oc3ccc(NS(=O)(=O)c4cccc5cccnc45)cc23)C1	4
Cc1ccc(OCC(O)Cn2cnc3ccccc32)cc1 (stereo unspecified)	32
C[C@H]1CN([C@@H](C)CO)C(=O)c2cc(NS(=O)(=O)c3cccs3)ccc2O[C@H]1CN(C)Cc1ccc(C(=O)Nc2ccccc2N)cc1	71
C[C@@H]1CN([C@H](C)CO)C(=O)c2cccc(NS(=O)(=O)c3cccs3)c2O[C@@H]1CN(C)Cc1ccc(C(F)(F)F)cc1	17
OCCN(CCO)Cc1ccc(Cl)cc1	14
COc1ccc(N2C(=O)c3ccc(Oc4ccccc4)cc3C2=O)cc1	-5
C[C@H]1CN([C@@H](C)CO)C(=O)c2cccc(NC(=O)c3cnccn3)c2O[C@@H]1CN(C)Cc1ccc(C(F)(F)F)cc1	28

Compounds listed so far that contain a furan ring, fused or not, in the order listed:
SMILES	NOMO-1 viab
C=C1C(C2(C)C=CC(=O)C(C)(C)C2CC(=O)OC)CC[C@@]2(C)[C@H](c3ccoc3)OC(=O)C3OC132 (stereo partly specified)	110*
COc1ccccc1NC(=O)c1c(NC(=O)c2ccco2)sc(C)c1C	45
CC1(C)CC(=O)c2c(oc3ccc(NS(=O)(=O)c4cccc5cccnc45)cc23)C1	4

More compounds follow.
SMILES	NOMO-1 viab
Cc1ccc(S(=O)(=O)Nc2cccc3c2O[C@H](CN(C)C(=O)NC(C)C)[C@@H](C)CN([C@H](C)CO)C3=O)cc1	18
CCOC(=O)c1c(NC(=S)N2CCOCC2)sc(C)c1C	-5
C[C@@H]1CN([C@H](C)CO)C(=O)c2cccc(NC(=O)c3ccc(-c4nccs4)cc3)c2O[C@H]1CN(C)Cc1ccccc1	73
CC(C)NC(=O)Nc1ccc2c(c1)CC(=O)N([C@H](C)CO)C[C@H](C)[C@H](CN(C)Cc1ccncc1)O2	4
CC(C)c1ccc(NCC(O)COc2ccc(Cl)c(Cl)c2)cc1 (stereo unspecified)	117*
Cc1ccc(S(=O)(=O)Nc2ccc3c(c2)CC(=O)N([C@@H](C)CO)C[C@H](C)[C@@H](CN(C)Cc2ccncc2)O3)cc1	-1
CCC(Sc1nnc(-c2ccc(NC(C)=O)cc2)n1C)C(=O)Nc1ccc(Cl)cc1 (stereo unspecified)	16
Cc1cccc(N(CC(=O)Nc2ccc(Cl)cc2)S(C)(=O)=O)c1C	27
Cc1ccc(S(=O)(=O)Nc2ccc3c(c2)C(=O)N([C@H](C)CO)C[C@H](C)[C@H](CN(C)CC2CC2)OCCCC[C@@H](C)O3)cc1	16
C[C@H]1CN([C@@H](C)CO)C(=O)Cc2cc(NC(=O)C3CC3)ccc2O[C@H]1CN(C)Cc1ccc(C(=O)Nc2ccccc2N)cc1	128*
C[C@@H]1CN([C@@H](C)CO)C(=O)c2cc(NS(=O)(=O)c3ccc(F)cc3)ccc2O[C@H]1CN(C)S(=O)(=O)c1cccs1	2
